Screening data (PubChem BioAssay)
GIRK2 activ: GIRK2 channel activation | P48051 | HEK293-GIRK2 thallium flux, Thallos fluorescence | calls only for hits at 25 µM | hit rate 0.05% among 63,000 | AID 1259325;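 active means among the strongest 0.2% of first-round signals and kept after retests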;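 further: first round at about 10 µM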
Target sequence (P48051 whole entry, looked up): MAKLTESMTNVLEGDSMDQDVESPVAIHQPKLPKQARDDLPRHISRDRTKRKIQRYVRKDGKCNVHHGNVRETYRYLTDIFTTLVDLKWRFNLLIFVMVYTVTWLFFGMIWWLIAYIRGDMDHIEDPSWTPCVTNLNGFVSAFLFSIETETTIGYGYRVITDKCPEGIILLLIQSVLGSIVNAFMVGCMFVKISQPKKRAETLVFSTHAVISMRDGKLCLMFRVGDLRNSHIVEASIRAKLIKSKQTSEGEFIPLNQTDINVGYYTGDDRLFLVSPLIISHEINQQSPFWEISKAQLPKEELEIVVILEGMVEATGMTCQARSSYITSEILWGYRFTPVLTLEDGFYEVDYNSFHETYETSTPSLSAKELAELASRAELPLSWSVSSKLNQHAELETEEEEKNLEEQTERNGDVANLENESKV
Calls only; i = inactive. Some of the compounds tested; the hit share may differ from the screen's.

SMILES | GIRK2 activ
CCOC(=O)/C(=C/c1ccco1)c1nc(-c2cccnc2)n[nH]1 | i
O=C(CCc1c[nH]c2ccccc12)N1CCC2(CC1)OCCO2 | i
Cc1nn(C)cc1S(=O)(=O)N1CCN(C(=O)c2ccco2)CC1 | i
O=C(/C=C/c1ccco1)NCC1CCN(c2ccccn2)CC1 | i
CCOc1ccc(-c2ccc(=O)n(CCNS(=O)(=O)c3ccc(F)cc3F)n2)cc1 | i
COc1nn(C)cc1C(=O)NCC(=O)NCCc1cccs1 | i
CC1CCN(S(=O)(=O)N2CCN(C(=O)c3ccc4c(c3)OCO4)CC2)CC1 | i
CCOc1ccc(/C=N\n2c(N)c(C(=O)NCCCOC)c3nc4ccccc4nc32)cc1 | i
O=C(CN1C(=O)CCC1=O)N1CCN(Cc2nc3ccccc3n2Cc2ccccc2)CC1 | i
CCN1\C(=C/C=C/C=C/c2sc3ccccc3[n+]2CC)Sc2ccccc21 | i
CSCC(C)(O)CNS(=O)(=O)c1ccccc1Cl (centres undefined) | i
Cn1c(=O)[nH]c(=O)c2c1nc(NCc1ccco1)n2CCCOc1ccccc1 | i
COc1c(C)cnc(Cn2ccn3nc(-c4ccccc4Cl)cc3c2=O)c1C | i
Cc1oc(-c2ccc(Cl)cc2Cl)cc1C(=O)N1CCOCC1 | i
CC(C)Oc1ccc(C(=O)NCCCN2CCN(c3ccccc3)CC2)cc1 | i
O=C(CSc1cc(-n2cccn2)ncn1)Nc1cc(Cl)ccc1Cl | i
O=C(C1CC(=O)N(c2cccc(Br)c2)C1)N1CC(c2nc(-c3ccncc3)no2)C1 (centres undefined) | i
O=C(Oc1ccc(Br)cc1)c1ccc(Cl)cc1[N+](=O)[O-] | i
CCOCCn1c(N2CCN(Cc3cc(C)ccc3C)CC2)nc2c1c(=O)[nH]c(=O)n2C | i
COC(=O)c1ccc(Oc2c(C(F)(F)F)oc3c4c(ccc3c2=O)OCN(C2CC2)C4)cc1 | i
N#Cc1ccc(C(=O)N2CCC(Oc3ccc(C#N)cn3)CC2)cc1 | i
COc1cccc2cc(C(=O)N3CCN(C(=O)C4CC4c4cccs4)CC3)c(=O)oc12 (centres undefined) | i
CC(C)OCCCNc1nc2c(c(=O)n(Cc3ccc(Cl)cc3)c(=O)n2C)n1C | i
Cc1c(C)n2c3c(=O)n(CCC(C)C)c(=O)n(C)c3nc2n1Cc1ccco1 | i
COC(=O)C1=C(CS(=O)(=O)c2ccc(OC)c(OC)c2)NC(=O)NC1c1ccc(Cl)cc1 (centres undefined) | i
O=C(NCCn1ncccc1=O)Nc1ccc(OC(F)(F)F)cc1 | i
COc1nn(C)cc1C(=O)Nc1cccc(N2CCCC2=O)c1 | i
COc1ccccc1-c1coc2cc(OC(=O)/C=C/c3ccccc3)ccc2c1=O | i
CS(=O)(=O)N1CCN(C(=O)C(c2ccccc2)n2cccc2)CC1 (centres undefined) | i
CC(C)C(=O)Nc1ccc(C(=O)NCCNS(=O)(=O)c2ccc3c(c2)OCCO3)cc1 | i
O=C(NNC(=O)c1cccn(Cc2cccc(Cl)c2)c1=O)Nc1ccc(Cl)cc1 | i
O=C(CCS(=O)(=O)c1ccccc1)NCC#CCOc1cccc(C(F)(F)F)c1 | i
COc1ccc(-c2c(C)oc3cc(OC(C)C(=O)O)ccc3c2=O)cc1OC (centres undefined) | i
CC(C)(C)NC(=O)N(Cc1cnc2ccccn12)C1CC1 | i
COCCn1c(=O)c2c(nc3n2CC(C)CN3c2ccc(Oc3ccccc3)cc2)n(C)c1=O (centres undefined) | i
CC1CCN(c2nc(=O)n(CC(=O)Nc3cccc(Cl)c3)c3ccccc23)CC1 | i

Continued; the last 2 above are carried over.
SMILES | GIRK2 activ
COCCn1c(=O)c2c(nc3n2CC(C)CN3c2ccc(Oc3ccccc3)cc2)n(C)c1=O (centres undefined) | i
CC1CCN(c2nc(=O)n(CC(=O)Nc3cccc(Cl)c3)c3ccccc23)CC1 | i
Nc1ncc(C=O)cn1 | i
CCCCCCCCC#CCC#CCC#CCCCC(=O)O | i
CC(Oc1ccccc1)C(=O)N1CCCSCC1CN1CCCC1 (centres undefined) | i
COc1ccc(NC(=O)c2cc(=O)c(OC)cn2C)cc1 | i
Cc1ccc(S(=O)(=O)NCCC(N)=O)c(C)c1N(C)S(C)(=O)=O | i
Cc1c(C)n2c3c(=O)n(CCCO)c(=O)n(C)c3nc2n1Cc1ccccc1 | i
COc1ccc(CCC(=O)Nc2ccc(Cn3cnc(C(=O)NCc4ccc(F)cc4)c3)cc2)cc1 | i
COCCn1c(=O)c2c(nc(-n3nc(C)cc3C)n2Cc2cccc(C)c2)n(C)c1=O | i
CCCCC[C@H](O)/C=C/[C@@H]1[C@H](C/C=C\CCCC(=O)O)[C@@H](O)C[C@H]1O | i
CCOC(=O)C1CCN(C(=O)CCCSc2ccc(NC(C)=O)nn2)CC1 | i
O=C(Cc1noc2ccccc12)NCC#CCN1CCOCC1 | i
COc1cccc(CC(=O)NCCc2nc(-c3ccco3)cn2C)c1 | i
O=c1c(-c2ccc(Cl)cc2)c(C(F)(F)F)oc2c3c(ccc12)OCN(Cc1cccnc1)C3 | i
Cn1nnn(-c2ccc(NC(=O)c3ccc(OC(F)(F)F)cc3)cc2)c1=O | i
CCOc1ccc2c(=O)c(Oc3ccccc3Br)coc2c1 | i
Cc1cccc(OCc2ccc(-c3nc(C#N)c(NCCCN4CCOCC4)o3)o2)c1 | i
O=S(=O)(c1cccnc1)N1CCN(c2ccc(-c3ccc(Cl)cc3)nn2)CC1 | i
CCOC(=O)COc1ccc2c(=O)c(Oc3ccc(C(=O)OC)cc3)coc2c1 | i
COc1cc(NC(=O)NCc2sc(-c3ccccc3Cl)nc2C)cc(OC)c1OC | i
Cn1nc(-c2cccs2)cc1C(=O)NCc1nc2ccccc2[nH]1 | i
COc1ccc(C2CC3C4NN=C(CCC(=O)NCCc5ccccc5)N4C=CN3N2)cc1 (centres undefined) | i
CC(C)N(CC(O)COc1cccc2ccccc12)C(C)C (centres undefined) | i
CCN(CC)C(=O)c1cc2c(=O)n3ccccc3nc2n1CCCOC | i
Cc1ccc(NS(=O)(=O)c2ccc(Cl)cc2)c(-c2nc3ccccc3[nH]c2=O)c1 | i
COc1cc(NC(=O)Nc2ccc3c(c2)N(S(=O)(=O)c2cccs2)CCC3)cc(OC)c1 | i
COc1ccccc1OCC(=O)NCCOc1cc(N2CCOCC2)ncn1 | i
COc1cccc(Cn2cnc3c(-c4ccc(OC)c(OC)c4)csc3c2=O)c1 | i
CC(=O)Nc1ccc(Nc2cc(C)nc3c(-c4ccccc4)c(C)nn23)cc1 | i
COc1ccc(/C=C/c2nc(C#N)c(N3CCN(C(=O)c4cccc(OC)c4)CC3)o2)cc1 | i
COc1cccc2cc(C(=O)NCC3(O)CCOc4ccccc43)oc12 (centres undefined) | i
Cc1ccccc1Cc1cnc(Nc2ccccn2)s1 | i
CN(C)C(CNC(=O)c1ccc2nsnc2c1)c1cccc2ccccc12 (centres undefined) | i
CN1CCc2c(sc(NC(=O)CS(=O)(=O)c3ccccc3)c2-c2nc3ccccc3s2)C1 | i
CCOC(=O)c1ccc(CC2S/C(=C(/C#N)C(C)=O)NC2=O)cc1 (centres undefined) | i
COc1ccc(OCc2noc(CNC(=O)Cc3cccs3)n2)cc1 | i
O=C(CCc1ccccc1)Nc1ccc(N2CCCS2(=O)=O)cc1 | i
CS(=O)(=O)N1CCc2nc(NC(=O)/C=C/c3ccc4c(c3)OCO4)sc2C1 | i
O=C(Nc1ccc(F)cc1)OC1CCCC(NC(=O)c2cnc3ccccc3n2)C1 (centres undefined) | i
COc1ccccc1NC(=O)CN1CCN(Cc2cnnn2-c2ccccc2C)CC1 | i
COc1ccc(C2C(C(=O)c3ccco3)=C(O)C(=O)N2c2ccccn2)cc1 (centres undefined) | i
COc1ccc(NC(=O)c2ccccc2NS(=O)(=O)c2ccc(F)cc2)c([N+](=O)[O-])c1 | i
COc1ccc(C(=O)N/N=c2\oc3c(OC)cccc3cc2C(N)=O)cc1 | i
O=C(CCSc1ccccc1)Nc1cc(N2CCCC2)ncn1 | i
O=C(CNC(=O)c1ccc(=O)[nH]c1)NCc1cccnc1 | i
CCOC(=O)C1CCc2sc(NC(=O)Cc3noc4ccccc34)nc21 (centres undefined) | i
Cc1cc(C(=O)N=c2sc3cc(F)ccc3n2C)on1 | i
CC(C)(C)c1cc(N2CCN(CCO)CC2)n2ncc(-c3ccccc3Cl)c2n1 | i
COc1cc(CCN2C(=O)c3cccc4cccc(c34)C2=O)c(S(=O)(=O)NCCCO)cc1OC | i
COc1ccc(Cc2nnc(SCC(=O)Nc3cc(C)ccc3OC)n2N)cc1 | i
CCCCOC(=O)c1ccc(NC(=O)c2cc(=O)c(OCC)cn2C)cc1 | i
CCOC(=O)N1CCC(NC(=O)Cn2c(=O)n(CCc3cccs3)c(=O)c3ccccc32)CC1 | i
COc1ccc(CCC(=O)Nc2ccc(Cn3cnc(C(=O)Nc4ccc(C)cc4)c3)cc2)cc1 | i
COc1cccc(OC)c1C(=O)Nc1cccc(-n2c(C)nc3ccccc3c2=O)c1 | i
COc1ccc(CCNC(=O)C(C)n2nc(-n3cccn3)ccc2=O)cc1OC (centres undefined) | i
Cc1cccc(N2CCN(C(=O)c3cn(-c4ccc(C#N)cc4)cn3)CC2)c1 | i
O=C(Nc1nc(-c2ccccn2)cs1)c1nnn(-c2ccc(OC(F)(F)F)cc2)n1 | i
O=C(CCS(=O)(=O)c1ccccc1)N1CCC(Oc2ccc(Cl)cn2)CC1 | i
Cc1cccc(N2CC(C)Cn3c2nc2c3c(=O)n(CCN3CCOCC3)c(=O)n2C)c1 (centres undefined) | i
O=C1NCCc2ccc(NS(=O)(=O)Cc3cc(F)ccc3F)cc21 | i
COc1cccc(NC(=O)CSc2nc3ncccc3c(=O)n2Cc2ccccc2Cl)c1 | i

Laid out differently: entries from further up
canonical_smiles,GIRK2 activ
Cc1cccc(N2CC(C)Cn3c2nc2c3c(=O)n(CCN3CCOCC3)c(=O)n2C)c1 (centres undefined),i
COc1ccc(Cc2nnc(SCC(=O)Nc3cc(C)ccc3OC)n2N)cc1,i
COc1ccc(CCC(=O)Nc2ccc(Cn3cnc(C(=O)Nc4ccc(C)cc4)c3)cc2)cc1,i
O=C1NCCc2ccc(NS(=O)(=O)Cc3cc(F)ccc3F)cc21,i

(list continues)
SMILES | GIRK2 activ
CCn1c(=O)c(C(=O)Nc2ccccc2OC)c(O)c2sccc21 | i
COc1cc(C)c(Cl)c(C)c1S(=O)(=O)N1CC(C)OC(C)C1 (centres undefined) | i
NC(=O)c1ccc2c(=O)[nH]cnc2c1 | i
CC(NC(=O)COc1ccccc1)C(=O)NC1=NCCS1 (centres undefined) | i
COCCCNC(=O)NC1(C(F)(F)F)Oc2ccc(C(C)(C)C)cc2O1 (centres undefined) | i
COc1ccc(NC(=O)C(=O)NCC2(c3ccc(F)cc3)CC2)cc1Cl | i
CSc1cccc(NC(=O)c2cn(C)nc2C)c1 | i
CCOc1ccccc1NC(=O)CN1CCN(Cc2nc(-c3cccs3)cs2)CC1 | i
COc1ccccc1N1CCN(c2ccnc(SCC(=O)Nc3ccccc3C)n2)CC1 | i
CCOc1ccc(-c2cc3c(N4CCC(C(=O)NCc5ccc6c(c5)OCO6)CC4)nccn3n2)cc1 | i
COc1ccc2nc(N(CCN3CCOCC3)C(=O)c3ccc(Br)s3)sc2c1 | i
COCCn1nnn(-c2ccc(NC(=O)Cc3ccccc3Cl)cc2)c1=O | i

Given as a markdown table: entries from further up.
| structure | GIRK2 activ |
| --- | --- |
| CC(=O)Nc1ccc(Nc2cc(C)nc3c(-c4ccccc4)c(C)nn23)cc1 | i |
| O=C(CSc1cc(-n2cccn2)ncn1)Nc1cc(Cl)ccc1Cl | i |
| O=C(Cc1noc2ccccc12)NCC#CCN1CCOCC1 | i |
| COc1cc(C)c(Cl)c(C)c1S(=O)(=O)N1CC(C)OC(C)C1 (centres undefined) | i |
| COc1cccc(NC(=O)CSc2nc3ncccc3c(=O)n2Cc2ccccc2Cl)c1 | i |
| O=C(NCCn1ncccc1=O)Nc1ccc(OC(F)(F)F)cc1 | i |
| CC(C)(C)c1cc(N2CCN(CCO)CC2)n2ncc(-c3ccccc3Cl)c2n1 | i |

Back to the main list, repeating the 2 entries before the break.
SMILES | GIRK2 activ
COc1ccc2nc(N(CCN3CCOCC3)C(=O)c3ccc(Br)s3)sc2c1 | i
COCCn1nnn(-c2ccc(NC(=O)Cc3ccccc3Cl)cc2)c1=O | i
CCOCC(=O)N1CCC(Oc2cnccn2)CC1 | i
COc1ccc(-n2nnc(C(=O)NC3CCCCC3)c2C(C)C)cc1 | i
COc1ccc(/C=C/C(=O)Nc2cnc(N3CCOCC3)nc2)cc1OC | i
C=CCn1c(=O)c2c(nc3n2CC(C)=NN3C/C=C/C)n(C)c1=O | i
O=C(CSc1nc2c(oc3ccccc32)c(=O)n1Cc1ccco1)NCc1ccccc1 | i
Cc1ccc(NC(=O)c2ccc(S(=O)(=O)N(C)c3ccccc3)cc2)c(C(=O)c2ccccc2)c1 | i
CN(C(=O)Cn1cc(S(=O)(=O)N2CCCC2)ccc1=O)c1ccccc1 | i
COc1ncc(NC(=O)Nc2ccc(Cl)c(C(F)(F)F)c2)cn1 | i
CC(=O)OC[C@@]12[C@@H](OC(C)=O)C[C@@H](C)[C@](C)([C@@H]3C[C@H]4C=CO[C@H]4O3)[C@H]1CCC[C@]21CO1 | i
Cc1nc2ccc3nc(NC(=O)Nc4ccc5c(c4)OCO5)sc3c2s1 | i
O=C(Cn1cccc1-c1nc(-c2ccc(F)c(Br)c2)no1)N1CCOCC1 | i
NC(=O)CN1N=C(c2ccccc2)c2ccccc2S1(=O)=O | i
CN1CCN(C(CNC(=O)c2ccc3c(c2)OCO3)c2cccn2C)CC1 (centres undefined) | i
COc1cc(/C=C2\SC(=S)N(c3ccccc3C)C2=O)cc(OC)c1OC | i
COc1ccccc1-c1c(C)nn2c(Nc3ccncc3)cc(C)nc12 | i
COc1ccc(/C=C2\Oc3cc(OCC(N)=O)cc(C)c3C2=O)c(OC)c1OC | i
COc1cc(C(=O)Nc2cc(C)nn2-c2nc(-c3ccc(F)cc3)cs2)c([N+](=O)[O-])cc1OC | i
COCCN(Cc1ccoc1)S(=O)(=O)c1ccc(C(C)=O)cc1 | i
CC12CCC(C(=O)Nc3ccc(SC(F)F)cc3)(CC1=O)C2(C)C (centres undefined) | i
